From PubChem
Mtb H37Rv: Mycobacterium tuberculosis H37Rv growth inhibition, cell based, confirmatory dose response (AID 1949); most inactive calls were filed without a number and no value below 0 was filed; 100,000 compounds, 1.6% hits; inhibition, % at 10 µg/mL; hits with a dose series show IC50 in µg/mL;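 active = confirmed in a dose series; inconclusive = about 50% or more but not retested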;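 note: bacteria grown 7 days with compound before Alamar blue readout; 0% = untreated bacteria and 100% = reference antibiotic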
* = called active by the depositor; i = inactive; ? = inconclusive. Not all compounds are listed; rates above refer to the full screens.

SMILES | Mtb H37Rv
Cc1ccccc1NC(=O)CCCOc1ccc(Cl)cc1Cl | i
COc1cccc(NC(=O)c2ccc(C)o2)c1 | i
O=C(NCc1ccco1)C1CCN(C(=O)c2ccc(Br)cc2)CC1 | i
Cn1c(NCc2cccc(Br)c2)nc2ccccc21 | i
CCOC(=O)C1=C(C)N=c2s/c(=C/c3ccc(-c4ccc(OC)cc4[N+](=O)[O-])o3)c(=O)n2C1c1cccs1 (stereo not drawn) | 1%
O=C(CSCc1ccc(Br)cc1)NCCc1ccccc1 | i
COc1ccc(N2CCN(C(=O)CN3C(=O)c4ccccc4S3(=O)=O)CC2)cc1 | 0%
CCC(C(=O)Nc1ccc(C)cn1)c1ccccc1 (stereo not drawn) | i
Cc1cc(C)cc(N(C(C)C(=O)N(C)C)S(C)(=O)=O)c1 (stereo not drawn) | i
Cc1ccc(S(=O)(=O)N(C)c2ccc(C(=O)NCCSCc3ccco3)cc2)cc1 | i
COc1cccc(-c2nc(=S)c3c(n2CCCO)CCCC3)c1 | i
Cc1ccc(C(=O)NC(=S)N2CCNC(=O)C2)cc1I | ?
COc1ccc(Cl)cc1NC(=O)CSc1nnc(-c2ccc([N+](=O)[O-])cc2)n1-c1ccccc1 | 3%
Cc1ccc(NC(=O)c2cc([N+](=O)[O-])ccc2NCc2cccnc2)cc1 | 8%
O=C(NCC1CCCO1)c1ccc(NC(=S)NC(=O)c2cncc(Br)c2)cc1 (stereo not drawn) | i
Cc1ccc(OCCSc2nc3ccccc3n2CC(O)CO)cc1C (stereo not drawn) | i
CC(C)(C)NC(=O)c1ccc(NC(=O)c2ccccc2-c2ccccc2C(=O)O)cc1 | 42%
Cc1ccc(C(=O)Nc2ccccc2C(=O)N2CCCC2)cc1S(=O)(=O)N1CCOCC1 | i
CCCNC(=O)c1ccccc1NC(=O)CSCc1ccc([N+](=O)[O-])cc1 | i
CCc1ccc(C(=O)CSc2nnc(-c3cccc(Br)c3)o2)cc1 | i
COc1ccc(C)cc1N(CC(=O)NC1CCCCCC1)S(C)(=O)=O | i
CC(C(=O)OCc1ccccc1Cl)n1cnc2scc(-c3ccc(Cl)cc3)c2c1=O (stereo not drawn) | i
CC(=O)c1ccc(N2CCN(C(=O)Nc3cccc(C(F)(F)F)c3)CC2)cc1 | i
CCOc1ccccc1Oc1c(C)oc2cc(OC)ccc2c1=O | i
Nc1ccc(C(=O)c2ccc(F)cc2)cc1 | 1%
C=CCOc1ccccc1CNc1cccc(C(=O)O)c1 | i
O=C(O)COc1cccc(-c2nc3ccccc3s2)c1 | i
Cc1ccc(Nc2c([N+](=O)[O-])ccc3nonc23)cc1 | i
CCN1CCN(C2CCN(Cc3ccccc3C)CC2)CC1 | i
Cc1cccc(C(=O)OC2CCN(C)CC2)c1 | i
O=C(CC12CC3CC(CC(C3)C1)C2)Nc1cccc(NC(=O)c2ccc(Cl)cc2Cl)c1 | 3%
CC(=O)c1ccc(NC(=O)CSc2nnc(-c3cccs3)n2-c2ccccc2)cc1 | 0%
CCOC(=O)c1c(NC(=O)CC2Sc3ccccc3NC2=O)sc(C)c1C (stereo not drawn) | i
COc1ccc(Cl)cc1NC(=S)Nc1cccc(S(=O)(=O)N2CCOCC2)c1 | i
COc1ccc(S(=O)(=O)NCCc2ccccc2)c(Cl)c1Cl | i
COc1ccc(/C=C2/C(=O)NC(=O)N(c3ccc(Cl)cc3)C2=O)cc1O | i
COc1cccc(C=O)c1OCCCOc1ccccc1Cl | 8%
CCN1CCN(C2CCN(C(=O)COc3ccc(-c4ccccc4)cc3)CC2)CC1 | i
O=C(COc1ccccc1)Nc1nc2ccc(S(=O)(=O)N3CCCC3)cc2s1 | i
Cc1ccc(C)c(OC(=O)CCN2C(=O)c3ccccc3C2=O)c1 | i
Cc1ccc(CSc2ncnc3sc(C)c(C)c23)cc1 | i
Cc1ccc(CNc2ccc3[nH]c(=O)[nH]c3c2)cc1 | i
O=C(CCN1C(=O)c2ccccc2C1=O)Nc1sc2c(c1C(=O)NCc1ccco1)CCC2 | i
COc1ccc(S(=O)(=O)N2CCCCCC2)c(Cl)c1Cl | 2%
COc1ccc(Nc2cc(C)nc3c2ccc2ccccc23)cc1 | 1.6µg/mL*
CCCN1C(=O)C(O)(CC(=O)c2ccc(OC)c(OC)c2)c2ccccc21 (stereo not drawn) | i
COc1ccc(Cl)cc1NC(=S)NCCc1ccc(S(N)(=O)=O)cc1 | i
COc1ccccc1-c1nc(-c2ccc(NC(=O)c3ccc4c(c3)OCO4)cc2)no1 | i
CCOc1c(Cl)cc(C=O)cc1OC | i
COc1nnc(-c2ccc(N3CCOCC3)c(NC(=O)COc3cccc(C)c3)c2)c2ccccc12 | i
C=CCn1c(-c2cc(OC)c(OC)c(OC)c2)n[nH]c1=S | i
CS(=O)(=O)N(CC(=O)NC1CCCC1)c1cccc([N+](=O)[O-])c1 | i
CCOc1nnc(-c2ccc(C)c(S(=O)(=O)N(C)C)c2)c2ccccc12 | i
CC(=O)c1c(N2CCN(c3cccc(Cl)c3)CC2)nc(=S)n(-c2ccccc2)c1C | i
O=C(NC(=S)Nc1ccc(Cl)c(-c2nc3ncccc3o2)c1)c1ccc2c(c1)OCO2 | 0%
CC(=O)NS(=O)(=O)c1ccc(NC(=O)Cc2ccc(C)cc2)cc1 | 1%
CN(C)c1oc(-c2ccc(Cl)cc2)nc1S(=O)(=O)c1ccccc1 | i
COc1ccc(C(=O)CN2CCN(C(=O)c3c(OC)cccc3OC)CC2)cc1 | i
Clc1ccc(C2C3=C(Nc4ncnn42)c2ccccc2CC3)cc1 (stereo not drawn) | i
O=C(Nc1ccc2oc(=O)ccc2c1)c1ccc(Br)o1 | i

(continued)
SMILES | Mtb H37Rv
COc1ccc(-c2nnc(SCC(=O)Nc3nc(-c4ccccc4)c(C)s3)n2C)cc1 | i
Cc1ccc(C2c3c(oc4ccccc4c3=O)C(=O)N2c2nnc(C)s2)o1 (stereo not drawn) | i
COC(C(=O)Nc1c(C)cccc1C(C)C)c1ccccc1 (stereo not drawn) | 2%
COc1ccc(OCC(=O)Nc2nc(-c3ccc(Br)cc3)cs2)cc1 | i
O=C(CN(CCc1ccccc1)S(=O)(=O)c1ccccc1)NCc1ccc(Cl)cc1 | i
CCn1c(SCC(=O)NC(C)c2ccccc2)nnc1C(NC(=O)c1ccc(C)cc1)C(C)C (stereo not drawn) | i
CCn1nnc(NC(=O)c2ccccc2Br)n1 | i
COc1ccc(-c2cc(C(F)(F)F)n3ncc(C(=O)Nc4ccc5c(c4)OCO5)c3n2)cc1OC | 11%
CN(Cc1ccccc1)C(=O)c1ccc(NC(=O)c2ccccc2)cc1 | i
Cc1cc(=O)oc2ccc(OC(=O)c3cccc(S(=O)(=O)N(C)C)c3)cc12 | i
O=C(O)CCC1=NN2C=Nc3sc4c(c3C2NC1=O)CCCC4 (stereo not drawn) | i
O=C1CC(c2ccccc2)c2ccc3ccccc3c2N1 (stereo not drawn) | 8%
Cc1ccc([N+](=O)[O-])cc1NC(=O)CN(c1ccc(F)cc1)S(=O)(=O)c1ccc2c(c1)OCCO2 | 3%
O=C(NCC1(c2ccccc2)CCOCC1)C1CC1 | i
Cc1cc(NC(=O)CSc2nnc(COc3c(C)cccc3C)o2)ccc1Br | i
O=C(CCC(=O)Nc1ccc(F)c(Cl)c1)Nc1ccc(F)c(Cl)c1 | i
COC(=O)COc1cccc(NC(=O)c2cccs2)c1 | ?
CCC(=O)N/C(=N/c1nc(C)cc(C)n1)Nc1cccc(OC)c1 | i
Cc1cc(=O)[nH]c(SCCOCCOc2cc(Cl)ccc2Cl)n1 | i
CCN(C(=O)CS(=O)(=O)c1ccccc1)c1ccccc1C | 0%
CCN(c1cccc(C)c1)S(=O)(=O)c1cc(C)c(C)cc1C | i
CC(C)C(NC(=O)C1CCCCC1)C(=O)O (stereo not drawn) | i
Cc1cc(O)c2c(C)c(C)c(=O)oc2c1 | 29%
O=C(CN1C(=O)c2ccccc2C1=O)Nc1cccc2c1CCCC2 | i
Cc1ccc([N+](=O)[O-])cc1NC(=O)c1c(F)c(F)c(F)c(F)c1F | i
CCOC(=O)CNS(=O)(=O)c1c(C)ccc2nsnc12 | i
COc1cccc(OC)c1C(=O)NC(=S)N1CCOCC1 | 0%
N#Cc1ccc(COC(=O)c2ccc(C=O)cc2)cc1 | i
COc1cc(CNCCO)cc(Cl)c1OCc1ccc(Cl)cc1Cl | 5.7µg/mL*
CCn1ncc(NC(=S)NCc2ccco2)c1C(N)=O | i
Cc1ccc(C(C)C)c(OCC(=O)Nc2ccc(Br)c(C)c2)c1 | 4%
CCCC(=O)NCc1nc2ccccc2n1C(C)c1ccccc1 (stereo not drawn) | 2%
CC(Oc1ccc(F)cc1)C(=O)Nc1nc(-c2ccc(S(=O)(=O)N3CCOCC3)cc2)cs1 (stereo not drawn) | 8%
O=C(/C=C/c1ccccc1)Nc1ccc(Cl)c(-c2nc3ncccc3o2)c1 | i
O=C1C2C3c4ccccc4C(c4ccccc43)C2C(=O)N1c1ccc(Cl)c(Cl)c1 (stereo not drawn) | i
Cc1ccc(SCC(=O)Nc2nc(C(C)(C)C)cs2)cc1 | 17%
COc1cccc2cc(C(=O)Nc3c(C)cccc3C)c(=O)oc12 | 1%
O=C1CCC(OC(=O)c2ccccc2)CC1 | i
O=C(Nc1ccc(S(=O)(=O)NCc2ccccc2)cc1)N1CCCC1 | i
NN(Cc1ccccc1)c1ccccc1 | i
CS(=O)(=O)N1CCC(C(=O)N2CCN(Cc3ccccc3)CC2)CC1 | i
COc1cc(OC)cc(C(=O)NC(=S)Nc2ccccc2C(=O)O)c1 | i
CCOC(=O)c1c(-c2ccc(OC)cc2)csc1NC(=O)C1CCCCC1C(=O)O (stereo not drawn) | i
Cc1cccc(C)c1OCc1nnc(SCC(=O)NCCc2ccccc2)n1-c1ccccc1 | i
O=C(Nc1ccccc1)N1CCn2c1nc1ccccc12 | 4%
Cc1ccnc(NS(=O)(=O)c2ccc(NC(=O)c3cccc(N4C(=O)CCC4=O)c3)cc2)n1 | i
CC(Nc1cccc2ccccc12)c1cc(Cl)ccc1O (stereo not drawn) | i
O=C(CN1C(=O)c2cccc3cccc1c23)Nc1ccc(F)cc1F | i
c1cncc(Nc2nc(-c3cccs3)cs2)c1 | ?
O=C(Nc1ccc2oc(-c3cc(I)ccc3Cl)nc2c1)c1ncn[nH]1 | i
O=C(NCCOc1cccc(Cl)c1Cl)C1CCCCC1 | 1%
S=c1[nH]nc(-c2ccco2)n1-c1ccc(Cl)cc1 | i
CCc1ccccc1NC(=O)C1CC(=O)N=C(N)S1 (stereo not drawn) | i
CCOC(=O)C(Oc1ccc2oc(C)c(C(=O)OC)c2c1)c1ccccc1 (stereo not drawn) | 2.9µg/mL*
Cc1nc([N+](=O)[O-])c(N2CCN(Cc3ccccc3)CC2)n1Cc1ccccc1 | 1%
CC(=O)Cc1nc(-c2ccccc2)no1 | i
CCOC(=O)c1ccc(NC(=O)c2ccc(CSc3ncccn3)cc2)cc1 | i
CCOC(=O)c1ccc(NC(=O)CN(c2ccc(CC)cc2)S(=O)(=O)c2ccccc2)cc1 | i
CCn1c(SCC(=O)Nc2cccc(OC)c2)nnc1C(C)NC(=O)c1ccccc1C (stereo not drawn) | i
CCCCNCCOCCOc1ccc(Br)cc1C | i

The results go on:
SMILES | Mtb H37Rv
Clc1ccc(-c2noc(COc3ccc(Br)cc3Cl)n2)cc1 | 6%
CCCCc1ccc(NC(=O)COCC)cc1 | ?
CCC(C)NS(=O)(=O)c1ccc(OCC(=O)Nc2ccc(Br)cc2)cc1 (stereo not drawn) | i
Cc1occc1C(=O)Nc1scc(-c2ccc(Cl)c(Cl)c2)c1C#N | i
Cc1cc(Cl)ccc1OC(C)C(=O)N1CCN(c2ccc(Cl)cc2)CC1 (stereo not drawn) | i
O=C(Cc1ccc2ccccc2c1)Nc1ccc(N2CCOCC2)cc1 | i
CCOc1cc(C2CC(=O)Nc3cc(C)c(C)cc32)cc(Br)c1OCC (stereo not drawn) | 3%
N#Cc1ccc(C(=O)NCc2ccco2)c(F)c1 | 1%
Cc1ccc(-c2cc(C(F)F)n3ncc(C(=O)NCc4ccc5c(c4)OCO5)c3n2)cc1 | i
Cc1nnc(SCC(=O)Nc2ccc(NC(=O)CSc3nnc(C)s3)c(Cl)c2)s1 | i
COc1ccc(NC(=O)Cc2ccc(C)cc2)cc1OC | i
Cc1ccc([N+](=O)[O-])cc1S(=O)(=O)N1CCCC(C)(C)C1 | 4%
C=CCc1cc(C)cc(C)c1OCCN1CCN(C)CC1 | i
CCCc1cc(=O)oc2cc(OS(=O)(=O)c3ccc(C)cc3)c(Cl)cc12 | i
Cc1ccc(S(=O)(=O)Nc2cc(Sc3ccccc3)c(O)c3ccccc23)cc1 | i
CCOC(=O)c1conc1-c1cccs1 | 14%
CCOCCCNC(=O)c1ccc(C)c([N+](=O)[O-])c1 | i
